Screening data from PubChem.
SARS PLpro yeast: SARS-CoV PLP inhibition in yeast; S. cerevisiae expressing SARS-CoV PLpro, growth rescue; control for the full effect not named in the record; Potency, µM (titrated, usually from 32.9 µM), for inactives: at the top dose activity, positive = growth rescue; 0.19% of 330,000 active; AID 485353; further: 0% is about no effect; nearly all actives have a fitted effect of over 55% in size; growth read by luminescence after 48 h
2A StopGo: FMDV 2A StopGo reporter, luciferase signal. human cells with a luciferase reporter of 2A StopGo recoding; control for the full effect not named in the record. Potency, µM (highest dose often 57.9 µM), for inactives: at the highest dose signal change, negative = less light. 1.2% of 410,000 active. AID 1159524; active = well fitted falling curve with a large enough effect; inconclusive = small, poorly fitted or top-dose-only effect; inactive = no such curve, though single readings can be large or run the other way; tested in HEK293T cells; further: on the % scale 0 is the no-effect control and ±100 the full control effect; nearly all actives have a fitted effect of over 45% in size; luciferase light after 4 h
RE007 growth inh: less growth of the S. pombe RE007 Vpr strain; S. pombe RE007 Vpr strain, BacTiter-Glo ATP luminescence, 24 h; control for the full effect not named in the record; Potency, µM (doses to about 92.2 µM), without a hit: top-dose activity change, negative = less growth; 0.21% of 360,000 active; AID 651644; active = well fitted falling curve with a large enough effect; inconclusive = small, poorly fitted or top-dose-only effect; inactive = no such curve, though single readings can be large or run the other way;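 further: on the % scale 0 is the no-effect control and ±100 the full control effect; nearly all actives have a fitted effect of over 50% in size; the assay follows cell death caused by Vpr and the record does not say whether a fall means rescue or toxicity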
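Fission yeast RE007 carrying one integrated HIV-1 vpr copy, seeded at OD 0.01 in PMG+AL medium with 23 nL pinned compound. Grown 24 h at 30 degrees; viability read by BacTiter-Glo luminescence after 5 min.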
Cruzain inh noDet: blocks cruzain activity in detergent-free assay; purified cruzain, Z-FR-AMC fluorescence, no detergent; Potency, µM, inactives show max response, negative = inhibition, most hits filed as inhibitors; AID 1476; 2.3% of 200,000 active; P25779; active means well fitted curve in the direction sought with a large enough effect; inconclusive means small, poorly fitted or top-dose-only effect, or another doubt; inactive means no such curve, though single readings can be large; an effect the other way counts as inactive or inconclusive;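 further: plate controls were enzyme without inhibitor for no effect and buffer without enzyme for full effect; nearly all actives have a fitted effect of over 40% in size; top concentration of the series not given in the record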
Target sequence (P25779 123-467 limits assumed): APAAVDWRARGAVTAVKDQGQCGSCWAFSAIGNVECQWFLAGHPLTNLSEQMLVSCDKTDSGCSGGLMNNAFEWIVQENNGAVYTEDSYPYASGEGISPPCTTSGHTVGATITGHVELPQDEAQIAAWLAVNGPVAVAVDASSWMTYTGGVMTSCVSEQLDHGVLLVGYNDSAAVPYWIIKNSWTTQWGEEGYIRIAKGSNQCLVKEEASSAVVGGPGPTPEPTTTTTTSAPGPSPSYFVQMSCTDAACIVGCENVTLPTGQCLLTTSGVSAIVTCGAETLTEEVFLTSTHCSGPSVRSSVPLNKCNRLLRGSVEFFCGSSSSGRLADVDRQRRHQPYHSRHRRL
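Detergent-free condition (0.00005% Triton X-100) in acetate buffer pH 5.5 with DTT. 1.5 nM enzyme and compound were pre-mixed 15 min, then 2 uM Z-FR-AMC substrate added; reaction progress from fluorescence change between first and third reads (60 s).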
Cruzain Triton: cruzain (T. cruzi) inhibition with detergent | P25779 | purified cruzain, Z-FR-AMC fluorescence, 0.01% Triton | Potency, µM, inactives show max response, negative = inhibition, actives largely listed as inhibitors | 0.43% of 200,000 active | AID 1478; active means well fitted curve in the direction sought with a large enough effect; inconclusive means small, poorly fitted or top-dose-only effect, or another doubt; inactive means no such curve, though single readings can be large; an effect the other way counts as inactive or inconclusive;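 further: plate controls were neutral wells for no effect and buffer without enzyme for full effect; nearly all actives have a fitted effect of over 40% in size; top concentration of the series not given in the record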
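Cysteine protease activity tested under reducing, mildly acidic conditions (100 mM sodium acetate pH 5.5, 5 mM DTT) plus 0.01% Triton X-100. Cruzain 1.5 nM; substrate Z-FR-AMC 2 uM; 15 min compound preincubation at room temperature.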
Marburg entry inh: Marburg virus entry inhibition. AID 540276. Marburg virus pseudotyped entry inhibition, cell reporter; control for the full effect not named in the record; about a third of the inactives were read at about 46 µM. 1.8% of 300,000 active. Potency, µM (doses to about 37.8 µM), inactives show top-dose activity change, negative = inhibition, actives largely listed as inhibitors; active = well fitted inhibition curve with a large enough effect; inconclusive = small, poorly fitted or top-dose-only effect, or effect the other way; inactive = flat fitted curve, though single readings scatter; tested in HEK293 cells; about a fifth of its hits are not listed in these tables; further: on the % scale 0 is the no-effect control and ±100 the full control effect; luciferase read-out
LASV entry inh: blocks Lassa virus binding to or entry into cells | AID 540256 | 1.2% of 300,000 active | Potency, µM (series often up to 37.9 µM), for inactives: at the highest dose activity change, negative = inhibition, usual class: inhibitors | Lassa virus pseudotype entry inhibition, cell reporter; control for the full effect not named in the record; active means well fitted inhibition curve with a large enough effect; inconclusive means small, poorly fitted or top-dose-only effect, or effect the other way; inactive means flat fitted curve, though single readings scatter; tested in HEK293 cells; further: on the % scale 0 is the no-effect control and ±100 the full control effect; nearly all actives have a fitted effect of over 50% in size; luciferase read-out
NS1 inh: inhibitors of influenza NS1 protein function; S. cerevisiae slowed by influenza A NS1, growth recovery by OD600; Potency, µM (top dose mostly 46.1 µM), for inactives: at the top dose activity, positive = more growth; 0.4% of 270,000 active; AID 2326; further: actives are rising curves; nearly all actives have a fitted effect of over 50% in size
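Compounds were scored for reversing the slow growth caused by influenza A NS1 in S. cerevisiae, measured by optical density at 600 nm. Assay medium contained 2% galactose at pH 6.0; NS1-free yeast of the same strain were the positive control.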
Numbers without * were called inactive; u = inconclusive; x = not tested or not shown; & = joins results of further samples; [ ] = another dose, or the depositor's remark. Unless noted, the call rests on the fitted dose curve; in most records, active means well fitted rising curve with a large enough effect; inconclusive means small, poorly fitted or top-dose-only effect; inactive means no such curve, though single readings can be large or run the other way. Potency means the concentration at half of the fitted maximal effect.

SMILES	SARS PLpro yeast	2A StopGo	RE007 growth inh	Cruzain inh noDet	Cruzain Triton	Marburg entry inh	LASV entry inh	NS1 inh
CCc1nc(N2CCN(S(C)(=O)=O)CC2)c2c3c(sc2n1)CCCC3	-2%	1%	4%	x	x	u	-2%[46.1 µM]	-4%
CCC(=O)Nc1ccc(C(=O)NNC(=O)c2cccs2)cc1	u	23%	6%	-1%	3.3%	2%	37%[14.3 µM]	1%
CCCCCC(=O)N1CC2(CC)CN(C(=O)CCCCC)CC(CC)(C1)C2=O	-1%	-1%	1%	x	x	u	-16%	4%
O=C(CSc1nnc(-c2cccs2)n1C1CC1)NC1CCS(=O)(=O)C1 (stereo unspecified)	-2%	-9%	6%	x	x	-15%	10%	x
Cc1ccc(OCC(=O)Nc2cccnc2Cl)cc1C	-1%	57%[activator]	22%	x	x	27%[46.1 µM]	6%	-8%
O=c1c2ccccc2nc(-c2ccco2)n1Cc1ccccc1	x	38%[activator]	-8%	-5%	-4.4%	18%	0%	-15%
CC(=O)NCC(=O)NC(C(=O)Nc1ccc2c(c1)OCCO2)c1ccccc1 (stereo unspecified)	-3%	12%	30%	-3%	1.1%	0%	0%	-12%
Cc1c(C(=O)OC(C)C)sc(NC(=O)C2CCCO2)c1C(=O)OC(C)C (stereo unspecified)	3%	x	4%	u	-8.5%	-11%	u	18%
O=C(OCc1nc2ccsc2c(=O)[nH]1)c1cccc(S(=O)(=O)N2CCOCC2)c1	1%	-8%	-24%	x	x	-10%[46.1 µM]	6%	x
COc1cccc(CNc2ccccn2)c1O	-6%	16%	2%	x	x	u	-6%[46.1 µM]	14%
COc1ccc(NC(=O)C2=NNC(=O)CC2)cc1S(=O)(=O)N1CCCCC1	0%	-13%	2%	x	x	x	x	4%
COc1ccc(C(CNC(=O)C(C)Sc2ccccc2)N2CCOCC2)cc1 (stereo unspecified)	x	-8%	4%	x	x	-2%[46.1 µM]	-6%	x
Cc1c(NC(=O)NC2CCCCC2)cccc1[N+](=O)[O-]	0%	72%[activator]	3%	x	x	22%	-12%	-3%
N#Cc1c(-c2ccccc2)nc(N2CCN(Cc3ccccc3)CC2)[nH]c1=O	-1%	-16%	16%	x	x	u	22%[46.1 µM]	13%
COc1ccc(-n2nnc3c(=O)n(CC(=O)N4CCC(Cc5ccccc5)CC4)cnc32)cc1	2%	-8%	5%	17%	-2.3%	x	x	-46%
Cc1cc(S(=O)(=O)Nc2ccc(C(=O)NCC(c3ccco3)N3CCCC3)cc2)ccc1F (stereo unspecified)	9%	-3%	4%	x	x	-28%[46.1 µM]	12%[46.1 µM]	6%
Cc1ccc2nc(-c3ccc(NC(=O)CN4C(=O)NC(C)(c5ccc(OC(F)F)cc5)C4=O)cc3)sc2c1 (stereo unspecified)	22%	11%	-4%	-24%	-8.7%	u	u	4%
COc1ccc(/C=C2\Sc3ccc(C(=O)N4CCc5ccccc5C4)cc3N(C)C2=O)cc1	21%	x	x	u	-4.1%	0%	x	13%
COc1cc(OC)c(C(=O)Nc2ccc(S(=O)(=O)N3CCCCC3)cc2)cc1OC	-9%	0%	-7%	x	x	-7%	-15%	x
O=C(O)CCCN=Cc1c(O)c2ccccc2oc1=O	0%	-3%	0%	x	x	-23%[46.1 µM]	-28%[46.1 µM]	x
Cc1cccc(Nc2cnn(C34CC5CC(CC(CC(=O)O)(C5)C3)C4)c(=O)c2Cl)c1	8%[6.58 µM]	x	-1%	-7%	-4.5%	-2%	0%	15%
COc1ccc(/C=N/NC(=O)c2cccnc2)cc1CN1CCN(c2ccc(F)cc2)CC1	0%	-1%	-2%	x	x	u	u	x
COc1cccc(NC(=O)COc2cccnc2[N+](=O)[O-])c1	-2%	24%	-12%	x	x	u	u	x
Cc1nnc(N/N=C/c2cc(C)n(-c3ccc(F)cc3)c2C)n1N	-9%	12%	0%	8%	-6.1%	15µM*	7.1µM*	-19%
CCN1CCN(C(CNS(=O)(=O)c2cccs2)c2cccnc2)CC1 (stereo unspecified)	-4%	1%	-3%	x	x	x	x	0%
COc1ccc(N=C/C=C2/C=C(c3ccccc3)OC(C)(C)O2)cc1	-2%	0%	-3%	x	x	11%[46.1 µM]	1%[46.1 µM]	-7%
Cc1ccc(OCc2cc(C(=O)N3CCc4[nH]cnc4C3c3ccccn3)no2)cc1C (stereo unspecified)	4%	5%	-16%	x	x	-29%[46.1 µM]	0%[46.1 µM]	13%
CCOc1ccccc1-c1nc(-c2ccc(C)nc2OC)no1	1%	45%[activator]	-29%	u	0.6%	u	-22%	-46%
Cc1ccccc1OCc1nc(-c2ccc(NC(=O)c3ccc4c(c3)OCO4)cc2)no1	0%	-18%	7%	13µM*	3.1%	u	-25%	1%
CCOC(=O)c1[nH]ncc1CN1CCCC(C(=O)c2ccc(OC)c(OC)c2)C1 (stereo unspecified)	0%	3%	-4%	x	x	0%[46.1 µM]	-9%[46.1 µM]	3%
c1ccc(C(c2nnnn2C2CCCC2)N2CCCCCC2)nc1 (stereo unspecified)	-4%	x	15%	-9%	0.9%	-16%	10%	0%
CNC(=O)C12N=CNN=C1N(C)C(=O)N2C (stereo unspecified)	-1%	-6%	8%	x	x	u	7%	x
Cc1nc(NC(=O)c2ccc(-c3cc4ccccc4oc3=O)cc2)ccc1Br	-4%	7%	9%	u	-0.9%	-4%	15%	2%
O=C(Nc1ccncc1)Nc1cccc(C(F)(F)F)c1	u	-1%	-1%	x	x	x	x	8%
CCOc1ccc(NC(=O)COC(=O)c2cccnc2)cc1	3%	-13%	18%	-6%	2.8%	5%	2%	-4%
CCOC(=O)C1C(c2cc(OC)c(O)c(OC)c2)NC(=S)NC1(O)C(F)(F)F (stereo unspecified)	12%	-19%	x	4%	1.6%	u	10%	4%
CCOC(=O)Cc1cc(=O)[nH]c(=O)[nH]1	1%	-13%	7%	x	x	11%[46.1 µM]	5%[46.1 µM]	x
c1ccc2c(-c3nnc4n3CCCCC4)c[nH]c2c1	-4%	0%	11%	-3%	-1.0%	0%	-4%	-7%
CC(C)N1C(=S)SC2CS(=O)(=O)C=C21 (stereo unspecified)	-1%	3%	2%	2%	1.5%	3%	-18%	4%
Cc1c(-c2ccccc2)c(=O)oc2c(CN3CCN(C)CC3)c(O)ccc12	x	-17%	x	u	-21%	x	9%[46.1 µM]	x
Cc1c(NC(=O)CSc2n[nH]c(=O)n2-c2ccccc2)c(=O)n(-c2ccccc2)n1C	-1%	4%	2%	x	x	-11%[14.2 µM]	0%	x
CC(=O)CCC(=O)N1CCCC(CNC(=O)c2ccc(-c3ccccc3)cc2)C1 (stereo unspecified)	0%	40%[activator]	12%	x	x	x	x	-4%
Cc1ccccc1CNC(=O)CCCn1ncn2c(cc3occc32)c1=O	2%	27%&1%	-1%	-6%	-3.7%	-2%[46.1 µM]	14%[46.1 µM]	-6%
NS(=O)(=O)c1cc2c(cc1Cl)NC(CSCc1ccccc1)=NS2(=O)=O	-8%	82%&54%[activator]	9%[18.4 µM]	-5%&0%&-5%	-1.8%&-2.3%&1.2%	-23%	9%	4%
COc1ccc(Cl)cc1S(=O)(=O)NC(C)C(=O)NCc1ccncc1 (stereo unspecified)	0%	8%	8%	x	x	u	-2%	4%
Cc1cccc(S(=O)(=O)NCC2CCCO2)c1 (stereo unspecified)	-4%	70%[activator]	10%	4%	5.2%	-13%[46.1 µM]	u	5%
COc1cc(/C=C/C=C2/CC/C(=C/C=C/c3ccc(O)c(OC)c3)C2=O)ccc1O	x	u	-9%	x	x	u	u	x
COc1ccc(N2CCN(S(=O)(=O)c3ccc4c(c3)NC(=O)CS4)CC2)cc1	2%	-24%	-3%	x	x	x	x	0%
COc1ccc(OCCn2cc(C=O)c3ccccc32)cc1	-10%	u	-18%	x	x	u	u	9%
CCCCn1c(CN2CCN(c3ccc(F)cc3)CC2)nc2c1c(=O)n(C)c(=O)n2C	4%	u	-4%	u	-2.2%	-12%	-1%	-15%
CC(C)OC(=O)C1C(=O)CC(C)(O)C(C(=O)OC(C)C)C1c1cccc([N+](=O)[O-])c1 (stereo unspecified)	-3%	-6%	-15%	x	x	-11%[46.1 µM]	x	x
COc1ccc2c(c1)c(C(=O)CN1CCC3(CC1)OCCO3)c(C)n2Cc1ccccc1	1%	18%	11%	-2%	0.2%	-23%	u	27%
Cc1c(-c2ccc(Cl)cc2Cl)nc2ccccc2c1C(=O)NCCN1CCOCC1	1%	0%	-8%	x	x	12%	1%	-13%
O=C(NCC1CCCO1)c1csc2c1CCCCC2 (stereo unspecified)	-2%	x	-15%	-2%	4.4%	u	0%	-8%
CCN(C(=O)c1cc2c(=O)[nH]c3ccc(C)cc3c2s1)c1ccccc1F	1%	-8%	15%	x	x	3%[46.1 µM]	-1%	-7%
CCC(C)[C@H](NC(=O)NCc1ccc(S(N)(=O)=O)cc1)C(=O)O (stereo partly specified)	0%	-15%	11%	x	x	x	x	4%
CCSc1nnc(NC(=O)C2CCCCC2C(=O)O)s1 (stereo unspecified)	10%	9%	12%	7%	-0.5%	u	8%	0%
Cc1ccc(N/C(N)=N/c2nc(CSc3ccc(C)cc3)cc(=O)[nH]2)cc1	-2%	-22%	22%	u	2.9%	u	-12%	4%
CC1CCC(C(C)C)C(OC(=O)Cn2nnc3c(cnn3-c3ccccc3)c2=O)C1 (stereo unspecified)	0%	-21%	-2%	x	x	x	x	-68%
COc1cc(OC)cc(C(=O)N[C@H](C(=O)Nc2nc(-c3cc(OC)ccc3OC)cs2)C(C)C)c1	1%	-7%	-24%	x	x	-38%[46.1 µM]	-12%	x
O=C(Nc1nc2ccc(F)cc2s1)c1ccccn1	-12%	11µM*	14µM*	x	x	u	u	-2%
